High-throughput results from PubChem BioAssay.
KCNQ2 block = KCNQ2 channel blockers in CHO-K1 cells – cell-based, FluxOR thallium flux, B-score, primary screen (AID 2156); O88943; 20 min; stronger effect = lower value; only compounds with negative scores are shown here; some inactives read as strong as hits; B-score at 10 µM; actives 1.1% (n = 310,000);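 active = fluorescence ratio B-score at most minus 3 library SDs, with starting brightness B-score within 2 library SDs, cut at about -5.5 in these data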
Target sequence (O88943 whole entry, looked up): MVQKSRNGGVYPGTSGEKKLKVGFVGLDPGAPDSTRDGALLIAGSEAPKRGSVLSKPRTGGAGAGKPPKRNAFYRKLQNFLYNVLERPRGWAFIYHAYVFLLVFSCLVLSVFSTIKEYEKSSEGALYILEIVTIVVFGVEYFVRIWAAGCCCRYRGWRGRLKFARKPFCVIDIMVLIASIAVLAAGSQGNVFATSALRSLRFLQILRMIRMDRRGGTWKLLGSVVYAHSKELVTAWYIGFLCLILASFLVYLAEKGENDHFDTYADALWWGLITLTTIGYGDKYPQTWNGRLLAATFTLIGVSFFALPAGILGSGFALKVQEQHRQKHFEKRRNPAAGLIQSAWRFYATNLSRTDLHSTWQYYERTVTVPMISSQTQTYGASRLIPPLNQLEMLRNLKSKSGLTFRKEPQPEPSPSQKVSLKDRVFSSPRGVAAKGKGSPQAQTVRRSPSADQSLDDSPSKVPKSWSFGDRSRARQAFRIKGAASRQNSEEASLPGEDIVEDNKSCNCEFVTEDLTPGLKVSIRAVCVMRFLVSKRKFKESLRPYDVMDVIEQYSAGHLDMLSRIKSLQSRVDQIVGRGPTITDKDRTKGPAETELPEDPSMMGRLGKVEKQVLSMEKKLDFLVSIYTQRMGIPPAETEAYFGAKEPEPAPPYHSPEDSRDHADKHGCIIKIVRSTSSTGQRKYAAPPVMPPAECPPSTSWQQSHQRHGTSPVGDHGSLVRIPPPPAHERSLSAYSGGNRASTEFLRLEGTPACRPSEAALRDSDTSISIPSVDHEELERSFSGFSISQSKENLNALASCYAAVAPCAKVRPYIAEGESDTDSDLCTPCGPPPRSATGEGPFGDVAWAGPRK
KCNQ2 block baseline = further read-out of KCNQ2 block, marked with its call; B-score; measured here: initial fluorescence intensity artifact check;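 brightness before thallium and not channel activity; 0 = typical well and far values either way flag optical interference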
* marks the source's active call; other numbers are inactive results; i = inactive. Only part of the results is shown; rates above refer to the full screens.

KCNQ2 block | KCNQ2 block baseline | Compound
i | -0.47 | COc1ccc(-c2cc(CNS(=O)(=O)c3cc(OC)ccc3OC)on2)cc1
i | 1.4 | Cc1cccc(OCC(=O)O/N=C(\N)Cc2cccs2)c1
-6.9* | 2.3* | O=S(=O)(/N=C(\Sc1ccccc1)c1ccccc1)c1ccc(Cl)cc1
i | -0.47 | Cn1cccc1CNCC(O)c1ccccc1 (stereo not drawn)
i | 2.4 | C=CS(=O)(=O)c1ccc(Oc2ccc(S(=O)(=O)C=C)cc2)cc1
i | -1.1 | CCNC(=S)N1CCc2cc(OC)c(OC)cc2C1COc1ccc(OC)cc1 (stereo not drawn)
i | -0.08 | C=CCNC(=S)Nc1ccc(OC(F)F)c(Cl)c1
i | -2.4 | Cn1c(=O)c(=O)n(C)c2cc(S(=O)(=O)N3CCOc4ccccc43)ccc21
i | -1.4 | Cn1c(SCc2ccon2)nc2ccccc2c1=O
i | 0.77 | Cc1ccccc1NC(=O)C(Cl)=C(Cl)Cl

The listing continues:
KCNQ2 block | KCNQ2 block baseline | Compound
i | 0.68 | COc1cc2c(cc1OC)C(C)N(C(=O)c1cc(C)on1)CC2 (stereo not drawn)
i | 57 | N#C/C(=C\c1coc2ccc(O)cc2c1=O)C(=O)Nc1nc2ccccc2s1
i | -0.09 | CCN1CC2=C(OC(N)=C(C#N)C2c2ccccc2)/C(=C\c2ccccc2)C1 (stereo not drawn)
i | 0.1 | Cn1c(SCC(=O)N/N=C/C=C/c2ccco2)nc2ccccc21
i | 1.7 | O=C1CC(NS(=O)(=O)c2cccnc2)CN1c1ccccc1 (stereo not drawn)
i | 0.43 | COc1ccc(CNS(=O)(=O)CCNC(=O)c2ccc(OC)cc2)cc1
i | 0.3 | O=C(N/N=C/c1ccc(O)c(O)c1)C1CC1
i | -1.4 | O=c1cnnc(Nc2ccc(Nc3ccccc3)cc2)[nH]1
i | 0.02 | Cc1nc2c(C)cccc2cc1C(=O)N/N=C/c1ccc(O)cc1
i | -0.04 | CCN(CC)CCn1nc(C)nc1-c1ccccc1O

(listing goes on)
KCNQ2 block | KCNQ2 block baseline | Compound
i | -1.4 | COc1ccc(-c2noc(=O)n2Cc2cc(C)ccc2C)cc1
i | -1.4 | CSCC[C@H](NC(=O)N1CCn2c1nc1ccccc12)C(=O)NCc1ccccc1
i | 0.92 | O=C(CN(Cc1ccccc1)C(=O)c1cc2c(s1)CCC2)NCc1cccs1
i | -0.43 | COc1ccc(OCCOCCN2CCN(C)CC2)cc1
i | -0.19 | COc1ccc(NC(=O)CSc2nc(N)c(NC(=O)c3cccs3)c(=O)[nH]2)cc1
i | 4.5 | Nc1c(C(=O)Nc2ccc(Br)cc2)sc2nc(-c3ccco3)ccc12
i | -0.19 | Cc1cc(C)cc(NC(=S)N2CCN(S(C)(=O)=O)CC2)c1
i | -0.09 | O=C(NCCc1ccncc1)C(F)(F)F
i | -0.36 | COCCn1cc(C(=S)N2CCOCC2)c2ccccc21
i | 0.94 | CN1C(=O)C(O)(CC(=O)/C=C\c2ccc3c(c2)OCO3)c2ccccc21 (stereo not drawn)

The results go on.
KCNQ2 block | KCNQ2 block baseline | Compound
i | -0.26 | O=C(CCS(=O)(=O)c1cccc2nonc12)N1CCN(c2ccc(F)cc2)CC1
i | 3.1 | N/C(=N\OC(=O)CSc1ccccc1)c1ccc([N+](=O)[O-])cc1
i | -1.5 | Cc1cc(SCc2ccc([N+](=O)[O-])cc2)nc(=O)[nH]1
i | -0.66 | Cc1ccc(S(N)(=O)=O)cc1NC(=O)/C=C/c1ccc2c(c1)OCO2
i | 1 | CC(c1ccccc1)N1CCn2c(nc3cc(NC(=O)NC4CCCCC4)ccc32)C1 (stereo not drawn)
i | -4 | CCn1c2ccccc2c2cc(/C=N/n3cn[nH]c3=S)ccc21
i | -1.3 | Nc1nc(SCC(=O)c2cc3ccccc3o2)n[nH]1
i | -0.47 | CC(=O)N(Cc1cc(=O)[nH]c2ccccc12)c1ccccc1C
i | -1 | O=C(N/N=C/c1cccc(OC(=O)N2CCOCC2)c1)c1cccs1
i | 1.5 | CCOCCn1c(CN2CCN(C(c3ccccc3)c3ccccc3)CC2)nc2c1c(=O)n(C)c(=O)n2C

Next results.
KCNQ2 block | KCNQ2 block baseline | Compound
i | 0.43 | CCOc1ccccc1CN1CCN(Cc2[nH]c3ccccc3c2C)CC1CCO (stereo not drawn)
i | -0.27 | Cc1c(-c2nc(-c3ccc(C(F)(F)F)cc3)no2)n(C)oc1=O
i | -0.7 | Cc1ccc(/C=N/NC(=O)c2c(-c3ccccc3)noc2C)c(O)c1
i | 0.38 | Cc1ccc(Cl)cc1NC(=S)N(CCN(C)C)Cc1cccs1
i | 0.52 | O=C(COc1ccc(Cl)cc1)N1CCCCC1
i | -1.7 | CCN(CC)c1ccc(NC(=O)CCc2nnc3ccc(N4CCCC4)nn23)c(C)c1
i | -2.5 | COc1ccc(NC(=S)NCCCc2ccccc2)cc1
i | -0.12 | COc1ccc(N=C2SCC(=O)N2Cc2ccccc2)cc1
i | -0.37 | CCCCn1c(=O)n(CC(O)c2ccccc2)c(=O)c2c1ncn2C1CCCC1 (stereo not drawn)
i | -0.31 | Cc1cccc(CSCCNC(=O)CN2C(=O)c3ccccc3S2(=O)=O)c1

Other records
KCNQ2 block | KCNQ2 block baseline | Compound
i | 1.7 | CCCCc1ccc(NC(=O)C2CCN(S(C)(=O)=O)CC2)cc1
i | 0.45 | O=c1c2ccccc2nc(-c2ccc(Cl)cc2Cl)n1CCCn1ccnc1
i | 3.4 | Cc1ccc(O)c(CNCCNCc2cc(C)ccc2O)c1
i | -0.77 | O=c1cc(N2CCN(Cc3ccccc3)CC2)c(-c2ccccc2)n[nH]1
i | -1.1 | CC(C)C(=O)Nc1c2c(nn1-c1ccccc1)CSC2
i | -0.51 | CCOc1ccc(CCNC(=O)c2nn(C)c3c2CS(=O)(=O)c2ccccc2-3)cc1
i | 0.12 | O=C(NCc1cccnc1)C1c2ccccc2C(=O)N1Cc1ccccc1 (stereo not drawn)
i | 0.06 | CCOC(=O)C1CCCN(CCSc2ccc(C)cc2)C1 (stereo not drawn)
i | 0.83 | C/C(=N/NC(=O)COc1cc(C)ccc1C(C)C)C(=O)O
i | 0.28 | O=C(Nc1nc(-c2cccs2)cs1)c1ccc(S(=O)(=O)N2CCCCC2)cc1

Next structures.
KCNQ2 block | KCNQ2 block baseline | Compound
i | -0.7 | O=C(Nc1ccc2c(c1)OCO2)C1CC(c2cccc(Br)c2)=NO1 (stereo not drawn)
i | 2.2 | CC(C)(C)C#CC(CCc1ccccc1)OS(N)(=O)=O (stereo not drawn)
i | -0.63 | NC(=O)NC(=O)CC1S/C(=N/N=C2\CSC(=O)N2)NC1=O (stereo not drawn)
i | 1.4 | COc1ccc(-c2oc3ncn4nc(Cc5ccccc5)nc4c3c2-c2ccc(OC)cc2)cc1
i | 0.15 | CC(c1ccon1)N(C)Cc1c(C(=O)N(C)Cc2ccccc2)nc2ccccn12 (stereo not drawn)
i | -1.5 | c1ccc(CCn2nnnc2CN2CCN(C3CCCC3)CC2)cc1
i | -2.1 | Cc1ccccc1CNC(=O)C1CCCN(c2nnc(C)c3c(C)n(-c4ccccc4)nc23)C1 (stereo not drawn)
i | 1.6 | COc1ccc(C2/C=C\CN(S(=O)(=O)c3ccc(C)cc3)[C@H](Cc3ccccc3)C(=O)N2Cc2ccc(F)cc2)cc1 (stereo partly drawn)
i | 1.1 | C=CCNC(=O)/C(=C\c1ccc(OC)cc1)NC(=O)c1ccc([N+](=O)[O-])cc1
i | -0.9 | CCOC(=O)c1ccccc1OCc1cc(/C=N/NC(=O)c2ccncc2)ccc1OC

Part of the list above in order of molar mass, lowest first.
KCNQ2 block | KCNQ2 block baseline | Compound
i | -1.5 | Cc1cc(SCc2ccc([N+](=O)[O-])cc2)nc(=O)[nH]1
i | 0.83 | C/C(=N/NC(=O)COc1cc(C)ccc1C(C)C)C(=O)O
i | 3.4 | Cc1ccc(O)c(CNCCNCc2cc(C)ccc2O)c1
i | 0.02 | Cc1nc2c(C)cccc2cc1C(=O)N/N=C/c1ccc(O)cc1
i | 1.5 | CCOCCn1c(CN2CCN(C(c3ccccc3)c3ccccc3)CC2)nc2c1c(=O)n(C)c(=O)n2C

New compounds follow:
KCNQ2 block | KCNQ2 block baseline | Compound
i | -0.63 | O=C(CN1CCCCC1)Nc1nc(-c2ccccc2)cs1
i | 6.4 | CCOC(=O)Cc1csc(/C(=N/O)C(N)=O)n1
i | -0.1 | Cc1cc(C(=O)NN)c(Cl)cc1Cl
i | 2.5 | CC(=O)Nc1ccc(NC=C(C#N)C#N)cc1
i | 1.4 | COc1cc(CC(=O)OCC(=O)Nc2ncc(Cl)cc2Cl)cc(OC)c1OC
i | -0.43 | CC(OC(=O)Cc1n[nH]c(=O)c2ccccc12)C(=O)Nc1cccc([N+](=O)[O-])c1 (stereo not drawn)
i | -0.04 | COc1ccc(NC(=O)C2CCCCN2S(=O)(=O)c2ccc(F)cc2)c(OC)c1 (stereo not drawn)
i | -2 | CC1CCCN(Cc2nc3c(c(=O)n(C)c(=O)n3C)n2CCc2ccccc2)C1 (stereo not drawn)
i | 0.26 | COc1cccc(-n2nc(-c3ccnn3-c3cccc(Cl)c3)c(=O)n(C)c2=O)c1
i | -1.4 | CCOc1cc(C(=O)N[C@@H](C)C(=O)N2CCC3(CC2)NCCc2[nH]cnc23)cc(OCC)c1OCC

New compounds follow:
KCNQ2 block | KCNQ2 block baseline | Compound
i | 0.61 | O=C(Cn1c(=O)c2c3c(sc2n(Cc2ccccc2)c1=O)CCCC3)NCCO
i | -0.82 | COC(=O)c1sc(N2CCN(Cc3ccccc3)CC2)nc1N
i | 2.1 | O=c1c2cc(O)c(O)cc2oc2cc(O)c(C3OC(CO)C(O)C(O)C3O)c(O)c12 (stereo not drawn)
i | 0.92 | CCn1ncc(-c2ccnc3cc(C(=O)O)nn23)c1C
i | 1.7 | Cc1nc(C(=O)Nc2ccccc2)sc1C1(C)CC(c2cccc([N+](=O)[O-])c2)=NO1 (stereo not drawn)
i | 0.52 | c1cncc(-c2noc(-c3cccc4ccccc34)n2)c1
i | 0.01 | O=C(NC1CCC(O)CC1)c1ccccc1OCc1ccc(F)cc1 (stereo not drawn)
i | 1.5 | Cc1cccnc1NC(=O)C1CCCN1S(=O)(=O)c1ccc(Cl)cc1 (stereo not drawn)
i | -0.47 | COc1ccccc1CNC(=O)COC(=O)Cc1c(Cl)cccc1Cl
i | 0.63 | O=C(CSc1nnc(NC(=O)c2ccco2)s1)NC1CCCC1

More results follow.
KCNQ2 block | KCNQ2 block baseline | Compound
i | 2.5 | N#Cc1cc2ccccc2nc1SCc1ccccn1
i | -0.22 | CCN(C(=O)c1cc(Cl)ccc1OC)c1ccccc1C
i | 0.07 | CCC(C)NC(=O)C1CCN(S(=O)(=O)c2ccc3nc4c(c(C(=O)O)c3c2)CCCCC4)CC1 (stereo not drawn)
i | -0.85 | COc1cccc(/C=C2/Sc3ccc(C(=O)NCCCN4CCCC4)cc3NC2=O)c1
i | 0.74 | Cc1ccnc(N2CCC(C(=O)NCc3ccc(F)cc3)CC2)n1
i | -0.4 | O=C(Cc1ccccc1)c1c[nH]c(C(=O)C(Cl)(Cl)Cl)c1
i | 2.5 | c1ccc2c(c1)CCN(c1ncnc3c1[nH]c1ccccc13)C2
i | -0.98 | CC1(C)OC2CCN3C(C(O)COS3(=O)=O)C2O1 (stereo not drawn)
i | 0.09 | CCn1cc(/C=N/NS(=O)(=O)c2ccc(OC)cc2)c(C)n1
-6.4* | 0.01* | Cc1ccc(-c2cc(C(F)F)n3ncc(C(=O)N4CCN(c5cccc(C)c5C)CC4)c3n2)cc1

5 compounds from above, sorted by the value under KCNQ2 block baseline, falling:
KCNQ2 block | KCNQ2 block baseline | Compound
i | 0.92 | CCn1ncc(-c2ccnc3cc(C(=O)O)nn23)c1C
i | 0.68 | COc1cc2c(cc1OC)C(C)N(C(=O)c1cc(C)on1)CC2 (stereo not drawn)
i | 0.1 | Cn1c(SCC(=O)N/N=C/C=C/c2ccco2)nc2ccccc21
i | 0.02 | Cc1nc2c(C)cccc2cc1C(=O)N/N=C/c1ccc(O)cc1
i | -0.51 | CCOc1ccc(CCNC(=O)c2nn(C)c3c2CS(=O)(=O)c2ccccc2-3)cc1

The listing continues.
KCNQ2 block | KCNQ2 block baseline | Compound
i | 0.55 | CSCSC1=C(C#N)C(c2ccccc2Cl)C(C(C)=O)=C(C)N1 (stereo not drawn)
i | -0.52 | Cc1ccc(NC(=O)CCS(=O)(=O)c2cccc3nonc23)c(Br)c1
i | 0.59 | CC(=O)Nc1cccc(OCC(=O)Nc2ccc(F)cc2)c1
i | -0.36 | COc1ccccc1NC(=S)N(Cc1ccc(C)cc1)Cc1ccccn1
i | 0.94 | O=C(CCC(=O)Nc1ccc(Br)cc1)N/N=C/c1ccc(O)cc1
i | -0.21 | CCn1cc(C2N3CC4(C)CN2CC(C)(C3)C4=O)c2ccccc21 (stereo not drawn)
i | -0.01 | CCOc1ncccc1C(=O)Nc1ccc(Cl)c(S(=O)(=O)N2CCCC2)c1
i | -0.2 | Clc1ccccc1CSc1nnc(-c2ccncc2)o1
i | 0.47 | CCC(C)NC(=O)C1CCC(=O)N(c2cc(OC)c(OC)c(OC)c2)C1c1ccc(OC)cc1 (stereo not drawn)
i | -0.03 | CC(C)Nc1ccc(Cl)cc1[N+](=O)[O-]

(listing goes on)
KCNQ2 block | KCNQ2 block baseline | Compound
i | 0.6 | COc1ccccc1CC(=O)N(CCC1=CCCCC1)c1c(N)n(Cc2ccccc2)c(=O)[nH]c1=O
i | 1.6 | CCCn1cnc2cc(NCc3ccccn3)ccc21
i | 0.07 | CCS(=O)(=O)Nc1cccc(C2=NN(S(=O)(=O)c3ccc(C)cc3)C(c3cccs3)C2)c1 (stereo not drawn)
i | -3.5 | CC(N=C1NS(=O)(=O)c2ccccc21)C(=O)NCCCc1ccccc1 (stereo not drawn)
-7.9* | 0.02* | Cc1c(Cl)cccc1NC(=O)C1Cc2ccccc2CN1C(=O)c1ccccc1 (stereo not drawn)
i | -1.2 | O=C(O)C1C2CCC(O2)C1C(=O)NCc1ccncc1 (stereo not drawn)
i | 0.15 | O=C(COc1cccc2ccccc12)N1CCN(c2ccccc2)CC1
i | 0.73 | O=C(NC(=S)NCc1ccccc1)c1cccnc1
